High-throughput results (PubChem)
Choline anaer gr: blocks anaerobic gram-negative growth on choline; AID 1963822; 55,000 tested, 0.2% active; calls only; Gram-negative bacterium anaerobic choline minimal medium, absorbance growth; hits give low values; many inactives read as strong as hits in the columns shown;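 active = growth z-score on choline under -2 at 7 or 20 h with little or no fall on glycerol, limits in tiers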;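 also: stock transfer was 300 nL into about 50 µL; the organism is E. coli; final concentration not given here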
Choline anaer gr early: also measured in Choline anaer gr; calls as there; z-score; measured here: choline growth z-score, timepoint 1;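 score of optical density at 7 h as mean of two plates; lower means less growth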
An asterisk follows results filed as active; i = inactive; & = joins results of further samples. Only part of the results is shown (hit frequency here may not be typical).

SMILES	Choline anaer gr	Choline anaer gr early
O=C(Cc1ccccc1F)N1CCCN(Cc2noc(-c3ccccc3)n2)CC1	i	-0.2
COc1ccc2c(c1)C1(CCN(C(=O)NCCc3ccccc3)C1)C(=O)N2C (stereo not drawn)	i	-0.06
CCNC(=O)[C@H]1O[C@@H](n2cnc3c(N)ncnc32)[C@H](O)[C@@H]1O	i	0.09
COc1ccc2c(c1)C1(CCN(C(=O)C(C)C)C1)C(=O)N2C (stereo not drawn)	i	-0.19
CCNC(=O)N1CCC2(C1)C(=O)Nc1ccc(OC)cc12 (stereo not drawn)	i	0.49
CCCN1CCO[C@@H]2c3cc(O)ccc3OC[C@@H]21	i	0.49
C[C@@H]1O[C@@H](O[C@@H]2C=C3CC[C@@H]4[C@H](CC[C@]5(C)[C@@H](c6ccc(=O)oc6)CC[C@]45O)[C@@]3(C)CC2)[C@H](O)[C@H](O)[C@H]1O	i	0.42
Cc1ccccc1Cn1cccc(C(=O)Nc2nc3ccccc3s2)c1=O	i	1.3
O=[N+]([O-])c1ccc2nc(N3CCNCC3)ccc2c1	i	-0.25
CCc1cc2c(s1)-n1c(C)nnc1CN=C2c1ccccc1Cl	i	0.15
C[C@@H]1CC[C@H]2[C@@H](C)C(=O)O[C@@H]3O[C@@]4(C)CC[C@@H]1[C@]32OO4	i	-1.8&-2.8&-0.82
O=C1CC[C@@]2(O)[C@H]3Cc4ccc(O)c5c4[C@@]2(CCN3CC2CC2)[C@H]1O5	i	-0.37&0.03
CC(C)(c1ccc(OCC2CO2)cc1)c1ccc(OCC2CO2)cc1 (stereo not drawn)	i	0.65
Oc1ccc2c3c1O[C@H]1c4c(c5ccccc5n4Cc4ccccc4)C[C@@]4(O)C(C2)N(CC2CC2)CC[C@]314	i	0.65
CC(C)[C@]12OC1C1O[C@]13[C@]1(OC1CC1C4=C(CC[C@@]13C)C(=O)OC4)C2O (stereo partly drawn)	i	0.17
Cc1ccc(C2c3cccn3-c3ccccc3CN2S(=O)(=O)c2cccc3nsnc23)cc1 (stereo not drawn)	i	-0.92
O=C(Cc1ccccc1)N1CCN(Cc2cc(=O)n3nc(-c4ccccc4)sc3n2)CC1	i	0.3
CCc1ccc(NC(=O)N2Cc3ccccc3-n3cccc3C23CCN(C)CC3)cc1	i	-1.1
COc1ccc(S(=O)(=O)N2CCC3(C2)C(=O)Nc2ccc(OC)cc23)cc1 (stereo not drawn)	i	0.06
O=C(CCCN1CCC2(CC1)C(=O)NCN2c1ccccc1)c1ccc(F)cc1	i	0.46&-0.39&1.2&-0.93
O=C(NCCN1CCOCC1)c1cc2cccnc2n(Cc2ccccc2)c1=O	i	-0.26
COc1ccc(C2c3cccn3-c3ccccc3CN2C(=O)Nc2cc(C)cc(C)c2)cc1 (stereo not drawn)	i	-1.4
CCC(=O)OC(Cc1ccccc1)(c1ccccc1)C(C)CN(C)C (stereo not drawn)	i	-0.01
CCC(C)n1[nH]c(=O)c2c1NC(=O)CSC2c1ccc2c(c1)OCO2 (stereo not drawn)	i	0.1
CN1CCc2cc3c(cc2[C@H]1[C@@H]1OC(=O)c2c1ccc1c2OCO1)OCO3	i	0.13
O=C(COc1ccc(Br)cc1)N1CCN(CCc2ccccn2)CC1	i	-1.4
O=C(Cc1ccccc1)N1CCN(Cc2c[nH]c3ccccc23)CC1	i	-0.95
CCCCC[C@@H](/C=C/C=C\C/C=C\C/C=C\CCCC(=O)O)OO	i	0.84
CC1c2cccn2-c2ccccc2CN1C(=O)Nc1cccc(Br)c1 (stereo not drawn)	i	0.17
CCC(C)n1[nH]c(=O)c2c1NC(=O)CSC2c1ccc(Br)cc1 (stereo not drawn)	i	0.63
COc1ccc2c(c1)C1(CCN(S(=O)(=O)c3c(C)noc3C)C1)C(=O)N2C (stereo not drawn)	i	0.47
C#C[C@]1(O)CC[C@H]2[C@@H]3CCC4=CC(=O)CC[C@]4(C)[C@H]3CC[C@@]21C	i	0.69&-0.02
CCOC(=O)c1c(C)n(Cc2ccccc2)c2ccc(OCC(O)CN3CCN(c4ccc(C)cc4)CC3)cc12 (stereo not drawn)	i	0.01
CC(=O)[C@H]1CCC2C3CC[C@H]4C[C@H](O)CC[C@]4(C)C3CC[C@@]21C (stereo partly drawn)	i	0.1
COC1=CC(=O)OC(/C=C/c2ccccc2)C1 (stereo not drawn)	i	0.25
COc1ccc(-n2nnnc2C2(NC3CCCCC3)CCCCC2)cc1	i	0.52
CCCCC/C=C\C/C=C\C/C=C\C/C=C\CCCC(=O)NCC(O)CC(=O)O (stereo not drawn)	i	0.29
O=[N+]([O-])/C=C/c1ccc2c(c1)OCO2	i	-2.8
Cc1cccc(C)c1NC1=NCCCS1	i	0.68&0.34&0.3&0.78
CC(=O)OCC1=C(C(=O)O)N2C(=O)[C@@H](N)[C@H]2SC1	i	0.35
COc1ccc2c(c1)C1(CCN(C(=O)NC3CCCCC3)C1)C(=O)N2 (stereo not drawn)	i	-0.16
O=c1oc2ccccc2c(O)c1Cc1c(O)c2ccccc2oc1=O	i	0.71&-0.31
CC1CNCCc2ccc(Cl)cc21 (stereo not drawn)	i	0.5
CCOC(=O)c1ncn2c1CN(C)C(=O)c1cc(N=[N+]=[N-])ccc1-2	i	-0.39
NCC(CP(=O)(O)O)c1ccc(Cl)cc1 (stereo not drawn)	i	-0.14
NC(CCCCCP(=O)(O)O)C(=O)O (stereo not drawn)	i	-0.08
O=C1C=CC(=O)C=C1	i	0.31
CCCCC(=O)N1CCC2(C1)C(=O)N(C)c1ccc(OC)cc12 (stereo not drawn)	i	-0.32
NCc1cccnc1	i	0.3
COc1ccc(NC(=O)CN2C(=O)CN=C(c3ccccc3)c3ccccc32)c(OC)c1	i	0.46
Cc1nnc2n1-c1ccc(Cl)cc1C(c1ccccc1)=NC2	i	0.12
O=c1c2ccccc2nc(/C=C/c2c[nH]c3ccccc23)n1-c1ccccc1	i	-0.45
CCOC(=O)c1ncn2c1[C@@H]1CCCN1C(=O)c1cc(OC)ccc1-2	i	1.1&0.42
O=P1(N(CCCl)CCCl)NCCCO1 (stereo not drawn)	i	-0.59&0.39&-0.11
Cc1ccc2[nH]c(C)c(C(O)CN3CCCCC3)c2c1 (stereo not drawn)	i	-0.04
C=CCN1C[C@@H](C)N([C@H](c2ccc(C(=O)N(CC)CC)cc2)c2cccc(OC)c2)C[C@@H]1C	i	0.09
Oc1ccc2c3c1O[C@H]1c4[nH]c5ccccc5c4C[C@@]4(O)C(C2)N(CC2CC2)CCC314 (stereo partly drawn)	i	0.19
C[C@]12CCC(O)CC1=CCC1C2CC[C@@]2(C)C1CC[C@]2(C)O (stereo partly drawn)	i	0.61
C=C(C)[C@@H]1CCC(C)=C[C@H]1c1c(OC)cc(CCCCC)cc1OC	i	0.43
Clc1ccc(COC(Cn2ccnc2)c2ccc(Cl)cc2Cl)cc1 (stereo not drawn)	i	0.87
Further results.
SMILES	Choline anaer gr	Choline anaer gr early
C[C@@H](N)Cc1cnc[nH]1	i	0.63&0.44
Clc1ccc(CCC(Cn2ccnc2)Sc2c(Cl)cccc2Cl)cc1 (stereo not drawn)	i	0.23&-0.12
CCOC(=O)c1ncc2[nH]c3ccc(OCc4ccccc4)cc3c2c1COC	i	-0.2
O=[N+]([O-])c1ccc([As](=O)(O)O)cc1	i	0.28
CN1CCC(c2ccc(F)cc2)C(COc2ccc3c(c2)OCO3)C1 (stereo not drawn)	i	0.28
NC(=O)CN1CC(O)CC1=O (stereo not drawn)	i	0.61&0.31
Cc1ccc(C)c(Cn2cccc(C(=O)Nc3nc4ccccc4s3)c2=O)c1	i	-0.01
C=CCN1C[C@H](C)N([C@H](c2ccc(C(=O)N(CC)CC)cc2)c2cccc(O)c2)C[C@H]1C	i	-0.92
Cc1ccc(Cn2cccc(C(=O)Nc3nc4ccc(C)cc4s3)c2=O)cc1	i	0.1
C[C@]12CC(=CO)C(=O)C[C@@H]1CC[C@@H]1[C@@H]2CC[C@@]2(C)[C@H]1CC[C@]2(C)O	i	0.42
COC(=O)/C=C/C(=O)N[C@@H]1CC[C@@]2(O)[C@H]3Cc4ccc(O)c5c4[C@@]2(CCN3CC2CC2)[C@H]1O5	i	0.48
CCC(C)n1[nH]c(=O)c2c1NC(=O)CSC2c1ccc(OC)c(OC)c1 (stereo not drawn)	i	0.08
C[C@]12COC(=O)C[C@@H]1CC[C@@H]1[C@@H]2CC[C@@]2(C)[C@H]1CC[C@]2(C)O	i	0.47
O=C(NCCCN1CCCC1=O)c1cc2cccnc2n(Cc2ccc(F)cc2)c1=O	i	1.2
CC[C@@]1(O)C(=O)OCc2c1cc1n(c2=O)Cc2cc3c(O)cccc3nc2-1	i	-0.06&-1.4

Arranged by number of heavy atoms (rising): some entries from above
SMILES	Choline anaer gr	Choline anaer gr early
C[C@@H](N)Cc1cnc[nH]1	i	0.63&0.44
Clc1ccc(CCC(Cn2ccnc2)Sc2c(Cl)cccc2Cl)cc1 (stereo not drawn)	i	0.23&-0.12
COC(=O)/C=C/C(=O)N[C@@H]1CC[C@@]2(O)[C@H]3Cc4ccc(O)c5c4[C@@]2(CCN3CC2CC2)[C@H]1O5	i	0.48

One compound at a time (already shown):
Entry for Clc1ccc(CCC(Cn2ccnc2)Sc2c(Cl)cccc2Cl)cc1 (stereo not drawn) = Choline anaer gr = i; Choline anaer gr early = 0.23&-0.12
Entry for Oc1ccc2c3c1O[C@H]1c4[nH]c5ccccc5c4C[C@@]4(O)C(C2)N(CC2CC2)CCC314 (stereo partly drawn) = Choline anaer gr = i; Choline anaer gr early = 0.19

Further entries.
SMILES	Choline anaer gr	Choline anaer gr early
CCN1C[C@]2(OC(=O)c3ccccc3NC(C)=O)CCC(OC)[C@]34C1C(C[C@H]23)[C@@]1(O)CC(OC)[C@H]2C[C@H]4[C@]1(O)C2OC (stereo partly drawn)	i	0.5
CCN1CCN(C(=O)Cc2c(C)nc3nc(-c4ccccc4)nn3c2C)CC1	i	0.29
c1cncc(C2NCCc3c2[nH]c2ccccc32)c1 (stereo not drawn)	i	-0.16
CS(=O)(=O)Nc1ccc(Cc2noc(-c3ccc4[nH]cc(CCN)c4c3)n2)cc1	i	0.21
Cc1ccc(C)c(Cn2cccc(C(=O)Nc3nc(C)cs3)c2=O)c1	i	0.79
O=C(Nc1nccs1)c1cccn(Cc2ccccc2F)c1=O	i	0.17
COc1cccc(CN2CCCN(Cc3ccccc3)S2(=O)=O)c1	i	0.17
CCC(C)n1[nH]c(=O)c2c1NC(=O)CSC2c1ccc(Cl)cc1 (stereo not drawn)	i	1.5
NCC1(CC(=O)O)CCCCC1	i	0.58&0.12&0.53
Oc1ccc2c3c1OC1c4[nH]c5ccccc5c4C[C@@]4(O)C(C2)N(CC2CC2)CC[C@]314 (stereo partly drawn)	i	0.52
COc1ccc(CCC(=O)N2CCC3(C2)C(=O)Nc2ccc(OC)cc23)cc1 (stereo not drawn)	i	0.58
CCOC(=O)Cc1csc(NC(=O)c2cccn(Cc3cc(C)ccc3C)c2=O)n1	i	1.7
Fc1ccc(-c2ccc(CNC3CN4CCC3CC4)o2)cc1 (stereo not drawn)	i	-0.01
CC(C)(C)NCC(O)c1ccccc1Cl (stereo not drawn)	i	0.63&0.66&0.34
COc1ccc(OCC(=O)N2CCN(CCc3ccccn3)CC2)cc1	i	-1.2
O=C(O)/C=C/CO	i	0.53
CCOC(=O)Cc1ccc(NC(=O)N2Cc3ccccc3-n3cccc3C2c2ccc(C)cc2)cc1 (stereo not drawn)	i	1.3
CCCN1CCC[C@@H]2Cc3[nH]ncc3C[C@H]21	i	0.67&0.54&0.82&0.48
C[C@H](N)CN1CCc2ccc(Br)cc21	i	-0.48
CN(C)CCNC(=O)c1cc2cccnc2n(Cc2ccc(F)cc2)c1=O	i	0.12
NCCc1ccc(S(=O)(=O)F)cc1	i	0.14
CCC(=O)N1N=C2C3CCN(CC3)[C@@H]2[C@@H]1c1ccc(Cl)cc1	i	0.79
COc1ccc2c(c1)C1(CCN(C(=O)C3CCCC3)C1)C(=O)N2 (stereo not drawn)	i	0.42
CCC(C(N)=O)N1CCCC1=O (stereo not drawn)	i	0.72
Cn1cc(C2=CCN(CC(=O)NC3CC3)CC2)cn1	i	0.57
O=C1CC[C@@]2(O)C3Cc4ccc(O)c5c4C2(CCN3CC2CC2)[C@H]1O5 (stereo partly drawn)	i	0.2
COc1cccc(CC(=O)N2CCN(Cc3nc4cc(C(=O)N5CCCC5)ccc4n3C)CC2)c1	i	-0.41
c1ccc2nc(N3CCNCC3)ccc2c1	i	-0.01&0.15
O=Cc1cn(Cc2ccc(Cl)cc2)c2ccccc12	i	0.47
CCc1ccc(OCC(=O)N2CCN(CC(=O)Nc3nnc(-c4ccccc4)s3)CC2)cc1	i	0.36

Structures shown so far containing bromine:
SMILES	Choline anaer gr	Choline anaer gr early
O=C(COc1ccc(Br)cc1)N1CCN(CCc2ccccn2)CC1	i	-1.4
CC1c2cccn2-c2ccccc2CN1C(=O)Nc1cccc(Br)c1 (stereo not drawn)	i	0.17
CCC(C)n1[nH]c(=O)c2c1NC(=O)CSC2c1ccc(Br)cc1 (stereo not drawn)	i	0.63
C[C@H](N)CN1CCc2ccc(Br)cc21	i	-0.48

(more compounds)
SMILES	Choline anaer gr	Choline anaer gr early
C[C@@H]1O[C@@H](O[C@H]2C[C@@H](O)[C@]3(CO)[C@H]4[C@H](O)C[C@]5(C)[C@@H](C6=CC(=O)OC6)CC[C@]5(O)[C@@H]4CC[C@]3(O)C2)[C@H](O)[C@H](O)[C@H]1O	i	0.72&0.52
CN1CCN(C(=O)OC2c3nccnc3C(=O)N2c2ccc(Cl)cn2)CC1 (stereo not drawn)	i	0.19
CCOC(=O)Cc1ccc(NC(=O)N2Cc3ccccc3-n3cccc3C2c2ccc(OC)cc2)cc1 (stereo not drawn)	i	0.89
COc1ccc(CN2CCNCC2)c(OC)c1OC	i	0.23
Nc1c(C(=O)Nc2ccccc2)sc2nc3c(cc12)N1CCC3CC1	i	1.3
O=C(Nc1ccc(F)cc1F)c1cccn(Cc2ccc(Br)cc2)c1=O	i	2
